Assay outcomes as filed in PubChem BioAssay.
hNpr1 antagonist – antagonists of human natriuretic peptide receptor Npr1 | HEK293 hNpr1 GloSensor cGMP, ANP-stimulated luminescence | Potency, µM (doses to about 46.3 µM), for the others: top-dose activity change, negative = inhibition, hits mostly inhibitors | 76,000 tested, 1.6% active; active = well fitted inhibition curve with a large enough effect; inconclusive = small, poorly fitted or top-dose-only effect; inactive = no such curve, though single readings can be large or run the other way;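 note: nearly all actives have a fitted effect of over 60% in size; nearly all hits also lower the signal before the agonist is added; a reference antagonist and vehicle were the controls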
Target sequence (P16066 whole entry, looked up): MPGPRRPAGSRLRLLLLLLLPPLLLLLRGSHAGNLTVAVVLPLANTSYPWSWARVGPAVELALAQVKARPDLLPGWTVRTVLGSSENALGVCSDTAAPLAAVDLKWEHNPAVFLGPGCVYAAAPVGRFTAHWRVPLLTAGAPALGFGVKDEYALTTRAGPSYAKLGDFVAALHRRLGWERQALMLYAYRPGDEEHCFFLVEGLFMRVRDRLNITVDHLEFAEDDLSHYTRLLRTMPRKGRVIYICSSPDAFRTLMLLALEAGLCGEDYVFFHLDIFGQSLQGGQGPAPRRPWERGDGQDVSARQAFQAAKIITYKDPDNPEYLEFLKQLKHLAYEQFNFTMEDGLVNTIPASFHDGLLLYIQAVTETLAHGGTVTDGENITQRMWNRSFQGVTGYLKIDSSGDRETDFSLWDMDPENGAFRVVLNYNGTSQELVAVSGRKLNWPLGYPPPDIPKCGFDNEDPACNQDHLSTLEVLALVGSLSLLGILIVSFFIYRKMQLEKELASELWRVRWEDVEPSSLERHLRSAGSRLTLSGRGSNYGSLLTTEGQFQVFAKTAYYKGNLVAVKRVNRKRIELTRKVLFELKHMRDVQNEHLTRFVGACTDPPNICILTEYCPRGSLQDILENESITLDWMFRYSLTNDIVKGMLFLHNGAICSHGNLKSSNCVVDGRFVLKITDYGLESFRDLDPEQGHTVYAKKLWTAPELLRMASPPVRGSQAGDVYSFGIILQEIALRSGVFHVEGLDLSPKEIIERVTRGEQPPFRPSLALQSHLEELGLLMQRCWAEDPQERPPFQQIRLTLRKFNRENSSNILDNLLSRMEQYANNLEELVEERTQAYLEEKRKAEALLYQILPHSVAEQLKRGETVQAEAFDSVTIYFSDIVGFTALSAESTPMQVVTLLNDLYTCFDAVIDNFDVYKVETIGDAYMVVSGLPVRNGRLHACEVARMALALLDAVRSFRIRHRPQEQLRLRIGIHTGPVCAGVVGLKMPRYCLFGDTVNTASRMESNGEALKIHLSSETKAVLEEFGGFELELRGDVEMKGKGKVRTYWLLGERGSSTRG
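Compound pre-incubated 30 min at room temperature on GloSensor-loaded HEK293 cells stably carrying hNpr1 and the pGS-40F cGMP biosensor. Stimulation uses hNppA at 0.1 nM final; luminescence is taken at baseline and 20 min post-agonist.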
Numbers without * were called inactive; [ ] = dose if it differs, or a comment. % is set by controls: 0 for no effect and ±100 for the full control effect; potency is the fitted concentration of half-maximal effect. These rows are one share of the data; count on the stated rates, not on these rows.

For O=C(c1ccccc1OCC1CCCN(C2CCCCCC2)C1)N1CCOCC1 (centres undefined) the results were hNpr1 antagonist -5%.
Screening Cc1noc(C2CC3(CCN(C(=O)Nc4ccccc4)CC3)CN2C)n1 (centres undefined) returned hNpr1 antagonist -1%.
Screening COc1ccccc1CC(=O)NCCn1cccc1-c1nc(-c2ccccc2)no1 returned hNpr1 antagonist -4%.
O=c1n(-c2ccc(C(F)(F)F)cc2)nc2n1CCN(Cc1ccccn1)C2 was read as hNpr1 antagonist 5%.
CCCNC(=O)C1COC2(CCN(C(=O)c3ccccc3Cl)CC2)N1C(=O)c1ccc(OC)cc1 (centres undefined) was read as hNpr1 antagonist -4%.
`O=C(c1ccccc1)N1CCC[C@H]1c1nc(-c2ccccc2Cl)no1` gave hNpr1 antagonist 1%.
For CN(C)[S+](=O)([O-])c1ccc2c(c1)OCCN(CCc1ccccc1)C2 the results were hNpr1 antagonist inconclusive.
`CCOc1ccc(NC(=O)Cn2c(C)cc3nc4n(c(=O)c32)CCCC4)cc1` gave hNpr1 antagonist 1%.
`O=C(C1CC(=O)N(C2CC2)C1)N1CCN(Cc2ccncc2)CC1` (centres undefined) gave hNpr1 antagonist 7%.
O=C(Cc1cccc(O)c1)N1CC(CNc2ccccc2)C2(C1)CN(c1ccccc1)C2 (centres undefined) was read as hNpr1 antagonist -18%[70.6 µM].
Screening O=C(CC1COCCN1)N1CCC2(CCC(=O)N(CCc3ccccc3)C2)CC1 (centres undefined) returned hNpr1 antagonist -1%.
CC(=O)c1ccc(N2CCN(C(=O)c3cc4n(n3)CC(c3ccc(Cl)cc3)OC4)CC2)cc1 (centres undefined) was read as hNpr1 antagonist 11µM*.
For Cc1cc(C(=O)N2CCCn3nc(C(=O)NCCN(C)C)cc3C2)ccc1F the results were hNpr1 antagonist 4%.
C=CCn1cc(CN2CCOc3c(O)cc(-c4cccc(Cl)c4)cc3C2)cn1 was read as hNpr1 antagonist -18%.
`Cc1cnc(C2CCC2)n1CC1CCN(C(=O)C(C)c2ccccc2)CC1` (centres undefined) gave hNpr1 antagonist 2%.

Retrieved one by one from the list above (5):
CCCNC(=O)C1COC2(CCN(C(=O)c3ccccc3Cl)CC2)N1C(=O)c1ccc(OC)cc1 (centres undefined) was read as hNpr1 antagonist -4%.
Screening Cc1noc(C2CC3(CCN(C(=O)Nc4ccccc4)CC3)CN2C)n1 (centres undefined) returned hNpr1 antagonist -1%.
`O=C(c1ccccc1)N1CCC[C@H]1c1nc(-c2ccccc2Cl)no1` gave hNpr1 antagonist 1%.
O=c1n(-c2ccc(C(F)(F)F)cc2)nc2n1CCN(Cc1ccccn1)C2 was read as hNpr1 antagonist 5%.
`Cc1cnc(C2CCC2)n1CC1CCN(C(=O)C(C)c2ccccc2)CC1` (centres undefined) gave hNpr1 antagonist 2%.

A draw from above in order of formula weight, falling.
C=CCn1cc(CN2CCOc3c(O)cc(-c4cccc(Cl)c4)cc3C2)cn1 was read as hNpr1 antagonist -18%.
`CCOc1ccc(NC(=O)Cn2c(C)cc3nc4n(c(=O)c32)CCCC4)cc1` gave hNpr1 antagonist 1%.
Screening Cc1noc(C2CC3(CCN(C(=O)Nc4ccccc4)CC3)CN2C)n1 (centres undefined) returned hNpr1 antagonist -1%.

Back to the main list; the 3 compounds before the break are reprinted first.
For Cc1cc(C(=O)N2CCCn3nc(C(=O)NCCN(C)C)cc3C2)ccc1F the results were hNpr1 antagonist 4%.
C=CCn1cc(CN2CCOc3c(O)cc(-c4cccc(Cl)c4)cc3C2)cn1 was read as hNpr1 antagonist -18%.
`Cc1cnc(C2CCC2)n1CC1CCN(C(=O)C(C)c2ccccc2)CC1` (centres undefined) gave hNpr1 antagonist 2%.
`COC(=O)c1sccc1S(=O)(=O)N[C@H]1C[C@@H](C(=O)OC)N(C)C1` gave hNpr1 antagonist -7%.
Screening O=C(NC1CCN(c2cc(-c3ccc(F)cc3)[nH]n2)C1)c1cc2ccccc2[nH]1 (centres undefined) returned hNpr1 antagonist inconclusive.
Screening COc1ccccc1-c1ccc(C(=O)N2C[C@@H](C)[C@@](C)(O)C2)cc1 returned hNpr1 antagonist -1%.
O=C(c1ccc(CC2CC(=O)N(c3ccccc3)C2)nc1)N1CCCC1 (centres undefined) was read as hNpr1 antagonist 3%.
`COCCN1Cc2ccc(NCc3ccccc3)nc2C(C)(C(=O)Nc2ccn(C)n2)C1` (centres undefined) gave hNpr1 antagonist -2%[70.6 µM].
COc1cccc(C(=O)N2CCC3(CC2)CCN(Cc2cccs2)c2ccccc2O3)c1 was read as hNpr1 antagonist -5%.
For Cc1ccc(C(=O)N2CCC(CCC(=O)NC3CCCCCC3)CC2)cc1 the results were hNpr1 antagonist -20%.
`NC(=O)[C@@H](Cc1ccccc1)NC(=O)C1=C[C@@H](NS(=O)(=O)c2cccs2)[C@@H](O)[C@H](O)C1` gave hNpr1 antagonist 5%.
For C=CCN(CC=C)C(=O)c1ccc(CN2C(=O)NC3(CCS(=O)(=O)CC3)C2=O)cc1 the results were hNpr1 antagonist 4%.
COc1ccc(-c2nn(-c3ccccc3C)cc2CN(C)Cc2nonc2C)cc1F was read as hNpr1 antagonist 1%.
O=C1NC2(CCN(C(=O)c3cccnc3)CC2)COc2ccccc21 was read as hNpr1 antagonist 19%[70.6 µM].
CCN(C(=O)c1cnc(-c2cccs2)[nH]c1=O)C1CCS(=O)(=O)C1 (centres undefined) was read as hNpr1 antagonist 1%.
COCCN1Cc2ccc(NCC(C)C)nc2C(C)(C(=O)NC2CC2)C1 (centres undefined) was read as hNpr1 antagonist -8%[70.6 µM].
For Cc1nc2c(c(=O)[nH]1)CCN(C(=O)C1(C)CCc3c(C)c(O)c(C)c(C)c3O1)C2 (centres undefined) the results were hNpr1 antagonist -1%.
Screening Cc1ccc(CNC(=O)CC2Sc3ncccc3N(C)C2=O)o1 (centres undefined) returned hNpr1 antagonist -14%.
`CCOc1ccc(CNC(=O)C2(c3ccc(NC(C)=O)cc3)CCCCC2)cc1` gave hNpr1 antagonist -1%.
For O=C1CC2(CCN(S(=O)(=O)c3cccc4nsnc34)C2)C(=O)N1 (centres undefined) the results were hNpr1 antagonist -2%.
`Cc1ccc(C(=O)NCc2nnnn2-c2ccccc2)cc1N1CCNC1=O` gave hNpr1 antagonist 6%.
CC1CCC2(CC1)OCC(C(=O)NCC1CC1)N2C(=O)c1ccc(F)cc1 (centres undefined) was read as hNpr1 antagonist -1%.
CC(C)(C)N1CC(C(=O)NCCc2nc(Cc3ccccc3)no2)CC1=O (centres undefined) was read as hNpr1 antagonist 2%.
Cc1n[nH]c(C)c1CCC(=O)N1CCCC(c2ccc(C(=O)O)cc2)C1 (centres undefined) was read as hNpr1 antagonist -1%.
`CCN(CC)c1cc(CCC(=O)NCc2ccc(Cl)cc2)ccn1` gave hNpr1 antagonist -12%.
`CCCS(=O)(=O)N1CCC(N2C(=O)[C@H](OCCOC)[C@@H]2c2ccncc2)CC1` gave hNpr1 antagonist 3%.
Screening CCOCCN1C(=O)COC[C@@H]1[C@H](O)c1ccc(NC(=O)CC(C)(C)C)cc1 returned hNpr1 antagonist -14%[70.6 µM].
Screening COCCNC(=O)[C@H]1C[C@H](Oc2ccccc2)CN1C(=O)COc1ccc(F)cc1 returned hNpr1 antagonist -14%.
`Cc1cccc(C(=O)N2CCCC2c2nc(C3CCOCC3)no2)c1` (centres undefined) gave hNpr1 antagonist 20%.
`CC(C)C[C@@H]1N[C@H](C(=O)NCc2ccncc2)Cc2cn(Cc3ccncc3)c3cccc1c23` gave hNpr1 antagonist -2%.
`Cc1cccc(C(=O)N2CC(N(C)Cc3cccnc3)C2)c1` gave hNpr1 antagonist 3%.
`CCS(=O)(=O)N(C1CC1)C1CCOC2(CCN(C(=O)c3ccc(OC)cc3)CC2)C1` (centres undefined) gave hNpr1 antagonist -1%.
CN(CC1(C)CCOCC1)C(=O)c1ccoc1 was read as hNpr1 antagonist 0%.
Screening CCn1ccnc1CNC(=O)C1(N2C[C@@H](C)O[C@@H](C)C2)Cc2ccccc2C1 returned hNpr1 antagonist 6%.
`COC[C@@H]1CN(Cc2ccc3c(c2)CCO3)C[C@H]1C(=O)N(C)C` gave hNpr1 antagonist 4%.
For COc1cccc(CN2CCOC3(CCN([S+](=O)([O-])c4ccccc4C)CC3)C2=O)c1 the results were hNpr1 antagonist -20%.
For O=S(=O)(Cc1ccccc1)NC[C@H]1Cn2c(-c3ccc(Cl)cc3)cnc2CO1 the results were hNpr1 antagonist inconclusive.
Screening Cc1nc2c(C(=O)N3CCC(=O)N(CC4CC4)C(C(C)C)C3)cccc2[nH]1 (centres undefined) returned hNpr1 antagonist -1%.
For COC(=O)CNC(=O)NCCc1noc(C2CC2)n1 the results were hNpr1 antagonist 0%.
For CN(C)[C@@H]1[C@@H](NC(=O)CCc2nc3ccccc3[nH]c2=O)[C@H]2CCO[C@H]21 the results were hNpr1 antagonist 5%.
Screening COc1cccc(S(=O)(=O)N2CCC(n3cnnc3-c3ccccc3)CC2)c1 returned hNpr1 antagonist -26%.
O=C(NCc1nnc2c(-c3nc(C4CC4)no3)cccn12)C1CC1 was read as hNpr1 antagonist 4%.
`CN(C)Cc1nnc(C2CC(NC(=O)c3cc(-c4ccsc4)n[nH]3)C2)n1C` (centres undefined) gave hNpr1 antagonist 4%.
CS(=O)(=O)c1ccc(OC[C@H]2C[C@@H](NC(=O)C3CCCC3)[C@H](O)[C@@H]2O)cc1 was read as hNpr1 antagonist 1%[70.6 µM].
For COc1cccc(C(=O)N[C@H]2[C@H](O)[C@H](O)C[C@@H]2c2ccccc2C)c1 the results were hNpr1 antagonist -6%[70.6 µM].
For CCCc1noc(-c2cccn3c(CNC(=O)Cc4cccc(OC)c4)nnc23)n1 the results were hNpr1 antagonist -2%.
Cc1ccc(C(=O)N2C[C@@H](COc3ccccc3)[C@H](C(N)=O)C2)cc1 was read as hNpr1 antagonist -15%.
Screening CN1CC2(CCCN(CC3CC3)C2)c2cc(C(=O)Nc3ccn(C)n3)ccc21 (centres undefined) returned hNpr1 antagonist 2%[70.6 µM].
Screening O=C(CN1Cc2nc(Nc3ccc(C(F)(F)F)cc3)ccc2OCC1=O)N1CCCC1 returned hNpr1 antagonist -16%[70.6 µM].
For O=C(Cn1c(=O)oc2ccccc21)NCC12CCCC=C1NC(=O)CC2 (centres undefined) the results were hNpr1 antagonist 5%.
For COCCNC(=O)C1(C)CN(C)Cc2ccc(Nc3cccc(OC)c3)nc21 (centres undefined) the results were hNpr1 antagonist 1%[70.6 µM].
Cc1ncc2n1C(=O)N(C1CCN(C(=O)NC3CCCC3)CC1)C2 was read as hNpr1 antagonist 2%[70.6 µM].
Cc1n[nH]c(C)c1CNC(=O)C1CCN(C(=O)c2ncn3c2COC(c2ccc(F)cc2)C3)CC1 (centres undefined) was read as hNpr1 antagonist 3%.
CN(c1ccccc1)c1ccc2nnc(-c3cc(C(=O)NC4CCC(O)CC4)ccn3)n2n1 (centres undefined) was read as hNpr1 antagonist 7%.
`OC1(CNCc2cc(C(F)(F)F)ccc2F)CNCCOC1` (centres undefined) gave hNpr1 antagonist -2%.
O=C(NCCN1CCOCC1)C1CCc2ncc(-c3ccc(F)cc3)n2C1 (centres undefined) was read as hNpr1 antagonist 2%.
CN(C)C[C@@H]1CN(Cc2cccnc2)C[C@H]1NC(=O)C1(C)CCOCC1 was read as hNpr1 antagonist 1%.
Screening CC(C)C[C@@H](NC(=O)[C@@H]1C[C@@H](NC(=O)c2cnccn2)CCN1C(=O)COCC(=O)O)C(N)=O returned hNpr1 antagonist 1%.
`CCCNC(=O)C(NC(=O)c1ccc(OC)cc1)C1CCN(C(=O)c2cccc(F)c2)CC1` (centres undefined) gave hNpr1 antagonist -8%.
For O=C(N[C@H]1CCN2C(=O)c3ccccc3NC(=O)[C@@H]2C1)C1CCCCC1 the results were hNpr1 antagonist 0%[70.6 µM].
For CNCC(=O)NC1CCCN(c2ccc(C(F)(F)F)cn2)C1 (centres undefined) the results were hNpr1 antagonist 0%.
Screening O=C(c1ccccc1)N1CCC(Oc2ccccc2F)(C(=O)O)CC1 returned hNpr1 antagonist -2%.
For O=C(CC1CCN(C(=O)c2cccs2)C1)NCc1ccccc1 (centres undefined) the results were hNpr1 antagonist -1%.
CC(C)NC(=O)N1CCC(O)(c2csc(CN3CCN(C)CC3)n2)CC1 was read as hNpr1 antagonist 1%[70.6 µM].
Cc1cnn(CCC(=O)N[C@@H]2CN(Cc3cccnc3)C[C@H]2CN(C)C)c1 was read as hNpr1 antagonist -3%.
For O=C(c1ccoc1)N1CCC2(CC1)CC(N(Cc1ccc(F)cc1)C1CC1)CCO2 (centres undefined) the results were hNpr1 antagonist -17%.
For CC1=C[C@@H](CN(C)CCc2ccccn2)[C@H](C(C)C)C[C@H]1Cc1nnc(-c2ccncc2)o1 the results were hNpr1 antagonist 1%.
Screening Cc1ccc(OCc2nc(C3CN(C(=O)CCc4nc5ccccc5s4)C3)no2)cc1 returned hNpr1 antagonist inconclusive.
For Cc1ccc2nc(C3CCCN(Cc4ccc(C#N)cc4)C3)[nH]c(=O)c2c1 (centres undefined) the results were hNpr1 antagonist 14µM*.
For O=C(COc1ccc(F)cc1)NC1CCN(c2cn[nH]c(=O)c2)CC1 the results were hNpr1 antagonist 1%.
For COc1ccc(C(=O)N2CCCC(C(=O)NCc3ccccc3)CCNC(=O)CC2)c(OC)n1 (centres undefined) the results were hNpr1 antagonist 4%.
For COc1cc(OC)cc(C(=O)NCC2CCCN(C(=O)c3oc(C)cc3C)C2)c1 (centres undefined) the results were hNpr1 antagonist 2%.
Screening CSc1ccc(NC(=O)c2cc(-c3ccc[nH]3)n[nH]2)cc1 returned hNpr1 antagonist -2%.
For CC(C)c1noc(-c2cccn3c(CNC(=O)C4CCCC4)nnc23)n1 the results were hNpr1 antagonist -15%.
